# High-throughput results deposited in PubChem BioAssay by National Center for Advancing Translational Sciences (NCATS).
# Six1-Eya2 inh = Six1/Eya2 interaction inhibition | AlphaScreen GST-Six1/His-Eya2 binding, biochemical; hits give low values; control for the full effect not named in the record | activity change, % (concentration not given with the values) | 0.56% of 360,000 active; in the data active = activity change below about -65%; inconclusive = about -30% to -65%; inactive = above about -30%; further: on the % scale 0 is the no-effect control and ±100 the full control effect
#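 GST-Six1 + His-Eya2 (5X stock: 250/500 nM); Tris pH 8.0, 300 mM NaCl, 0.05% BSA, 0.02% Tween 20; GSH donor/Ni acceptor beads; 1 h 37 °C dark; AlphaScreen readout.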
# TRPML1 agonist = agonists of human TRPML1 channel; Q9GZU1; TRPML1-expressing cells, Ca2+ dye fluorescence, FDSS; host cell line not named in the record; reference of the full effect not given here; activation, % (concentration not given with the values); 0.12% of 410,000 active; in the data active = activation above about 50%; inconclusive = about 30% to 50%; inactive = below about 30%; further: 0% is about no effect; the text of the record puts the active cut at 80%
# Target sequence (Q9GZU1 whole entry, looked up): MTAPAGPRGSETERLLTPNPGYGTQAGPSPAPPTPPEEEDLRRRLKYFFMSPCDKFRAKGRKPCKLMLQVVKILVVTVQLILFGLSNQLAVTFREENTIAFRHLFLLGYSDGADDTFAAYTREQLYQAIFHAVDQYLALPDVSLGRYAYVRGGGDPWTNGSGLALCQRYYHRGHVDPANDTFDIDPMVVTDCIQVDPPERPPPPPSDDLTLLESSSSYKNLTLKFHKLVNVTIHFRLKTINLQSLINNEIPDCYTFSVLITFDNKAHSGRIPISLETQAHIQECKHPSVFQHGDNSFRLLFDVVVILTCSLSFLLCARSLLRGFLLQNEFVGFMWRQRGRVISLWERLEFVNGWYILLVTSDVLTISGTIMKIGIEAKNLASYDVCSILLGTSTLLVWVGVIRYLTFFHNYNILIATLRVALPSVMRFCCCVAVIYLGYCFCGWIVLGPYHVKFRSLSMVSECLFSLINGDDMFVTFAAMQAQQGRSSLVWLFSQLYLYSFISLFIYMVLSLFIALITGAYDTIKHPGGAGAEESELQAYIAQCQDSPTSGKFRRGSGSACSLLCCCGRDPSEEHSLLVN
#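 Calcium fluorescence on an FDSS kinetic reader gave the read-out. Tet-induced TRPML1-DL cells were plated overnight, dye-loaded (Ca8 with quencher, 45-90 min, room temperature, dark), then read 110 s after compound addition, and again 110 s after 4uM final 54-4 (EC80).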
# CtBP-E1A blk = inhibitors of CtBP/E1A interaction. AlphaScreen GST-E1A/His-CtBP binding, 1536-well; hits give low values; control for the full effect not named in the record. activity change, % (concentration not given with the values). 0.49% of 340,000 active. AID 651724; in the data active means activity change below about -65%; inconclusive means about -30% to -65%; inactive means above about -30%; further: on the % scale 0 is the no-effect control and ±100 the full control effect
#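 In 5 uL wells, 23 nL compound meets equimolar GST-E1A and His-CtBP (5X stock 125 nM each) for 2 h, 37 °C. Beads (5X, 50 ug/mL) then 1 h, 37 °C, dark.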
# D2 agonist = agonists of human D2 dopamine receptor (beta-arrestin) | 0.084% of 360,000 active | activation, % (concentration not given with the values) | DiscoveRx PathHunter D2 beta-arrestin, luminescence, 90 min; 100% = 57 uM dopamine signal | AID 624465; in the data active = activation above about 40%; inconclusive = about 15% to 40%; inactive = below about 15%; further: compound concentration not given in the record; the text of the record calls up to 30% inactive
# Target sequence (P14416 whole entry, looked up): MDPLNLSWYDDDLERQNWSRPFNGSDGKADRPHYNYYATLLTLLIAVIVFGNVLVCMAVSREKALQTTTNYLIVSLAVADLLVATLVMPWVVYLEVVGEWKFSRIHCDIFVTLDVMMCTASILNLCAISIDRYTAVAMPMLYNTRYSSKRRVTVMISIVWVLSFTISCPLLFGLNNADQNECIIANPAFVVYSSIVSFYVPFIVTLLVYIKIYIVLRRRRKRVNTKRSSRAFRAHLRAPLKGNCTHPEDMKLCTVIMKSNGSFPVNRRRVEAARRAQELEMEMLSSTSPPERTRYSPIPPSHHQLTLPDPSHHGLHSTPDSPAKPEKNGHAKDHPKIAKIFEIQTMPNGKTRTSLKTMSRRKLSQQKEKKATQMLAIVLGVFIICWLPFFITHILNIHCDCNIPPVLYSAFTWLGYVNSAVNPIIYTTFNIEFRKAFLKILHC
#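 DiscoveRx PathHunter D2 beta-arrestin cells (2,100/well) attached overnight, then compound-stimulated 90 min at 37 C in HBSS/10 mM HEPES/0.1% Tween-20 buffer; beta-galactosidase complementation read by luminescence after 1 h at ambient temperature. Dopamine 57 uM final (EC100) as control.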
# TRPML1 inh = inhibitors of human TRPML1 channel | Q9GZU1 | TRPML1-inducible cells, Ca2+ dye fluorescence, FDSS; hits give low values; inhibition of EC80 agonist-evoked calcium signal | activity change, negative = inhibition, % (no concentration beside the values) | 0.02% of 390,000 active; in the data active means activity change below about -50%; inconclusive means about -30% to -50%; inactive means above about -30%;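 further: stimulus is agonist 54-4 at its EC80 concentration; on the % scale 0 is the no-effect control and ±100 the full control effect; compound concentration not given in the record; the text of the record puts the active cut at -80%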
#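 TRPML1-DL cells, Tet-induced overnight (~16 h, 37 °C) at 1,500 cells/well, were loaded with Ca8 no-wash dye plus quencher for 45-90 min at room temperature. Compounds were pinned during FDSS kinetic reading; agonist 54-4 at EC80 (4 uM final) then added.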
# PINK1 expr mod = modulators of PINK1 expression; 0.2% of 410,000 active; AID 624263; PINK1 immunofluorescence, high-content cytometry, 24 h; Potency, µM (doses to about 76.6 µM), for inactives: at the highest dose activation (PINK1 increase), hits mostly activators; active = well fitted activation curve with a large enough effect; inconclusive = small, poorly fitted or top-dose-only effect; inactive = flat fitted curve, though single readings scatter; cell line not stated here;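 further: potency means the concentration at half of the fitted maximal effect; % of control where 0% means no effect; nearly all actives have a fitted effect of over 65% in size; a mitochondrial uncoupler was the plate control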
#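 Measures PINK1 amount and localization on or inside mitochondria by immunofluorescence. Stable cells get compounds at 5 concentrations for 24 hours before fixation and staining; CCCP controls included.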
# * = called active by the depositor; ? = inconclusive; . = no result given; [ ] = dose if it differs, or a comment.
Structure,Six1-Eya2 inh,D2 agonist,TRPML1 inh,PINK1 expr mod,CtBP-E1A blk,TRPML1 agonist
CCC(Oc1ccccc1F)C(=O)Nc1cc(-c2ccccc2)no1 (stereo unspecified),.,.,-12,0.4%,.,0.1
CC(=O)N1CCOc2ccc(S(=O)(=O)N(C)c3ccc(C)cc3)cc21,1,3.1,7,-0.5%,0,1.8
Cc1cc(C(=O)COC(=O)CC2Sc3ccccc3NC2=O)c(C)n1-c1ccc(Br)cc1 (stereo unspecified),-18,-3.4,37,3.5%,-17,2.2
N#Cc1c(Nc2ccccc2)c(C=O)c[nH]c1=O,6,1.1,-15,0.0%,4,1.3
CC1(C)Cc2nc3oc4c(NCCCN5CCOCC5)ncnc4c3cc2CO1,3,-1.0,-3,0.6%,0,1.1
CCCCC[C@H](C)N1C[C@H](COCc2ccccc2)Oc2cc(N3CCC[C@@H]3CO)ccc2S1(=O)=O,-12,.,.,6.1%,-5,-0.2
COC(=O)c1cccc([N+](=O)[O-])c1CS(=O)(=O)c1ccc(C)cc1,3,-0.6,3,0.6%,5,-0.5
CC1=C(C(=O)OCc2ccccc2)C(/C=C/c2ccccc2)N2C(=O)CCSC2=N1 (stereo unspecified),-10,-4.1,28,8.9%,-6,2.5
CCOc1ccc(CCNC(=O)c2cc(Nc3ccc(C)cc3C)nc3ccccc23)cc1OCC,.,.,5,4.6%,.,1.7
CN(C)Cc1ccccc1Sc1cccc2ccccc12,?,-7.2,9,22%,-3,0.2
CCN(CC)c1nc(Oc2ccc(=O)[nH]n2)nc(N2CCOCC2)n1,2,0.0,13,-1.9%,6,1.5
O=C(Nc1nnc(SCc2ccccc2Cl)s1)c1cccc([N+](=O)[O-])c1,3,-5.2,-11,4.0%,7,0.3
CCCCCCn1c(=O)n2n(c1=O)[C@@H]1CN(S(=O)(=O)c3ccc(C)cc3)C[C@]1(O)[C@@H](OC(=O)Nc1cccs1)C2,-21,-1.1,28,?,-7,2.9
CCOc1ccc(N2C(=O)S/C(=C\c3ccc(O)c(OC)c3)C2=O)cc1,-7,-6.2,8,24%,-21,2.3
O=C(CSc1ccccc1F)NC1CCS(=O)(=O)C1 (stereo unspecified),4,0.5,-2,3.2%,4,-0.5
COc1ccc(CCNC(=O)C23CN(Cc4ccccc4)CC2C(c2cccc([N+](=O)[O-])c2)=NO3)cc1 (stereo unspecified),-28,-0.9,-3,2.4%,.,-0.1
COc1ccc(NCC(=O)N/N=C/C2CCCCC2)cc1,-3,-5.5,-22,-0.2%,-3,-0.6
O=c1c(-c2nc3ccccc3s2)cccn1Cc1ccc(Cl)c(Cl)c1,63,0.9,-11,7.9%,24,2.7
CC(=O)NC(c1ccccc1)c1c(O)ccc2ccccc12 (stereo unspecified),-7,-5.8,8,-1.2%,0,-0.1
CCOC(=O)CCCSc1nc2sc(C)c(C)c2c(=O)[nH]1,1,0.7,-14,0.1%,8,-1.1
CCOc1cc(CNCCc2c[nH]c3ccccc23)cc(Cl)c1OCC(N)=O,-3,-3.6,4,-1.3%,-2,-0.2
COCCn1c(C2CCCCC2)nc2sc3ccccc3c(=O)c2c1=O,3,3.5,0,-3.7%,5,-1.4
CCc1ccc(Cn2c(CNS(=O)(=O)c3ccc(C)c(C)c3)nc3cccnc32)cc1,.,.,1,0.2%,.,2.3
COc1ccc(C(=O)Nc2ccccc2C(=O)N2CCOCC2)cc1,-9,-2.6,31,-0.5%,-4,1.1
O=c1[nH]c2ccccc2n2c(-c3ccncc3)nnc12,?,-1.9,-24,-2.4%,?,0.8
N#CCCn1cc(/C=N/NC(N)=S)c(-c2ccccc2)n1,-3,-1.0,18,0.1%,-8,0.4
CCN(CC)c1ccc(/C=N/NC(=O)c2ccco2)cc1,-11,0.3,26,5.4%,-26,1.8
COc1cc2c(cc1NC(=O)/C=C/c1ccccc1)oc1ccccc12,3,-0.1,57,-2.5%[38.3 µM],23,-0.1
CN1CCCc2cc3c(C(F)(F)F)cc(=O)oc3nc21,-7,-4.4,-10,-0.3%,6,24
CC(=O)Nc1ccc(Nc2cc(C(C)C)nc3c(-c4ccccc4)c(C)nn23)cc1,13,-4.6,-4,0.2%,-10,0.4
CCCOc1ccc(/C(O)=C2/C(=O)C(=O)N(CCN(C)C)C2c2ccc(O)c(OC)c2)cc1 (stereo unspecified),18,0.2,-3,2.7%,7,0.0
COc1ccc(CN2C(=O)c3ccccc3C2C(=O)NC2CCCC2)c(OC)c1 (stereo unspecified),0,-2.0,-20,0.4%[38.3 µM],2,3.0
COc1cc(NC2c3ncccc3C(=O)N2Cc2ccco2)cc(OC)c1 (stereo unspecified),-3,-3.7,-4,15%[38.3 µM],5,0.0
COc1ccc2c(c1)c1c(c(=O)n(Cc3ccccc3)c(=O)n1Cc1ccccc1Cl)n2C,.,.,5,-0.6%,.,1.4
Cc1ccc(NC(=O)Nc2cccnc2)cc1,9,3.4,13,-0.2%,-2,0.1
CN1CCCN(c2ncnc3scc(-c4ccc(F)cc4)c23)CC1,-6,0.8,14,0.6%,.,0.4
CCc1nn(C(CC)C(=O)NCc2ccc(OC)c(OC)c2)c(=O)c2cc3oc(C)cc3n12 (stereo unspecified),.,.,-9,-0.4%,.,-0.1
Oc1c(/C=C/C=C/C=Nc2ccccc2)sc(=S)n1Cc1ccccc1,-15,-2.2,3,2.1%,.,0.4
COc1cc(-n2c(N)c(C(=O)NCc3ccco3)c3nc4ccccc4nc32)cc(OC)c1OC,13,0.5,-8,7.3%,.,-1.0
Cc1ccc(C)c(N(CC(=O)NCc2ccccc2)C(=O)c2csnn2)c1,-1,-4.9,8,3.7%,-15,-0.4
Cc1ccc(-n2nc3c(c2NC(=O)c2ccc4c(c2)OCO4)CS(=O)(=O)C3)cc1,3,0.7,-3,-1.6%,-3,-1.0
CN(C)S(=O)(=O)c1ccc2c(c1)N(CC(=O)N1CCN(c3ccccc3F)CC1)CCS2,.,.,-9,-0.9%,.,1.2
O=C(CCCn1c(=O)[nH]c2ccsc2c1=O)NC1CCCCC1,5,-4.0,-1,1.3%,0,1.3
O=C(Nc1ccc(OCc2cc(=O)n3c4c(sc3n2)CCCC4)cc1)c1ccc(F)cc1,.,.,-4,1.2%,.,0.6
O=C(C(c1ccccc1)c1ccccc1)N1CCOCC1,1,-4.4,0,-0.4%,4,-0.5
CCn1c(/C=C2/C(=O)N(C)c3ccccc32)nc2ccccc2c1=O,-6,-1.6,2,2.2%,13,-0.3
O=C1CCCC2=C1C(c1ccccc1O)C1=C(CCCC1=O)O2,6,0.7,-4,-3.4%,0,-1.0
CC(Nc1nc(N2CCN(CCO)CC2)nc2ccccc12)c1ccccc1 (stereo unspecified),-16,-6.5,-5,-2.2%,-21,0.3
CC(=O)Nc1ccc(N/C(C)=C/C(=O)c2cccnc2)cc1,21,-2.0,-14,-2.1%,23,-0.8
CCCOc1ccc(OCCN2CCCC(C)C2)cc1 (stereo unspecified),-6,1.2,69,1.2%,0,0.8
Cc1ccc(-n2nnnc2SC(C)C(N)=O)c(C)c1 (stereo unspecified),1,-2.8,-6,-1.0%,5,-0.6
O=C(COc1ccc(/C=N/NS(=O)(=O)c2ccccc2)cc1)NCCc1ccccc1,1,-2.9,-5,-2.1%,-3,-1.2
COc1cc(N)c2ncccc2c1OC,1,5.2,11,3.0%,-16,-0.3
Cc1ccc(C(=O)NCCN2CCNC2=O)cc1,-2,-0.2,25,0.5%,-4,0.9
CC(OC(=O)Cn1cnc2c1c(=O)n(C)c(=O)n2C)C(=O)NC1(C#N)CCCCC1 (stereo unspecified),15,0.3,3,0.0%,-2,0.3
O=C(Oc1c(CN2CCOCC2)cc(Cl)c2cccnc12)c1ccccc1F,-91*,-9.1,-11,0.3%,-91*,-0.2
O=C(CNC(=O)c1cccs1)NCC(=O)OCc1ccc(Cl)cc1Cl,1,1.3,-7,.,3,1.0
C=Cn1cc[n+](CC(=O)c2ccc(Br)s2)c1,-3,-1.4,12,-0.2%,.,-0.3
CN(CC(=O)Nc1ccc(Cl)cc1)C(=O)CCc1nc2sc3c(c2c(=O)[nH]1)CCCC3,-3,-2.8,3,19%,-16,0.5
CC1CCC(NC(=O)C(NC(=O)c2ccccc2)C(C)C)CC1 (stereo unspecified),4,-0.6,-1,-0.3%,-14,0.0

# Quoted at random: 3 compounds from above, in no set order.
Structure,Six1-Eya2 inh,D2 agonist,TRPML1 inh,PINK1 expr mod,CtBP-E1A blk,TRPML1 agonist
C=Cn1cc[n+](CC(=O)c2ccc(Br)s2)c1,-3,-1.4,12,-0.2%,.,-0.3
O=C(CCCn1c(=O)[nH]c2ccsc2c1=O)NC1CCCCC1,5,-4.0,-1,1.3%,0,1.3
CCCOc1ccc(OCCN2CCCC(C)C2)cc1 (stereo unspecified),-6,1.2,69,1.2%,0,0.8

# New compounds follow:
Structure,Six1-Eya2 inh,D2 agonist,TRPML1 inh,PINK1 expr mod,CtBP-E1A blk,TRPML1 agonist
CCOc1ccc(NC(=O)NNC(=O)COc2ccc3ccccc3c2)cc1,1,0.6,17,-0.1%,4,-0.3
COc1ccc(NS(=O)(=O)c2ccc(N3CCCCS3(=O)=O)cc2)cc1Cl,.,.,8,0.6%,.,0.6
COC(=O)[C@]1(Cc2ccccc2)N[C@H](CN(C)S(=O)(=O)c2ccc(C(C)(C)C)cc2)[C@@H]2C(=O)N(C)C(=O)[C@@H]21,0,-1.5,1,1.0%,1,-1.1
CCOc1cccc2sc(=NC(=O)CCS(=O)(=O)c3ccccc3)n(CC)c12,1,-2.0,3,-0.4%,-2,0.7
Cc1ccc(S(=O)(=O)N2CCCN(C(=O)c3ccc(-n4cccn4)cc3)CC2)cc1,5,5.0,5,0.0%,.,-0.1
COCc1cc(C)nc2sc(C(=O)N3CCN(c4ccccc4)CC3)c(N)c12,12,5.5,-4,0.0%,-16,-0.6
Cc1ccc(CNC(=O)Cn2ccn(-c3ccc(F)c(F)c3)c(=O)c2=O)cc1,.,.,-14,0.6%,.,-0.5
CCOC(=O)Nc1ccc2c(COC(=O)CN(C)S(=O)(=O)c3ccc(C)cc3)cc(=O)oc2c1,3,0.8,4,7.5%,2,2.3
CCN(CC)CC(C)OC(=O)COc1ccc(OC)cc1 (stereo unspecified),8,-1.3,-22,0.3%[38.3 µM],10,-0.2
CN(C)/C=N/c1ncn(-c2ncc(C(F)(F)F)cc2Cl)n1,5,-1.3,10,5.5%,2,-0.1
Cn1c(-c2cccc(Br)c2)cnc1NCc1ccccc1O,-14,2.8,-1,4.6%,-23,0.0
Cc1ccc(C(=O)O/N=C\c2ccc(N3CCCCC3)c([N+](=O)[O-])c2)cc1,?,-1.4,8,-2.8%,?,5.6
